Screens: PubChem, National Center for Advancing Translational Sciences (NCATS)
Menin MLL FP FL: inhibitors of human menin-MLL interaction, wild-type MLL peptide. FP activity change, % at 61.4 µM. Fluorescence polarization, fluorescein-MLL peptide displacement from menin. 290,000 tested, under 10 active; inconclusive = falling polarisation curve, or a change in total fluorescence; inactive = total fluorescence flat and polarisation flat or rising; no compound was filed as active; the % refers to the polarisation; negative = inhibition;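 also: % of control where 0% means no effect; inhibitors lower the polarisation; unlabelled MLL peptide was the positive control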
ClpP mod: qHTS Assay for Activators of ClpP; 340,000 tested, 1.9% active; ATP-dependent Clp protease proteolytic subunit (Bacillus subtilis (strain 168)), P80244; purified B. subtilis ClpP, FRET peptide cleavage, 20 min; Potency, µM (doses to about 57.5 µM), inactives show at the highest dose activity change, negative = active; active = well fitted falling curve with a large enough effect; inconclusive = small, poorly fitted or top-dose-only effect; inactive = no such curve, though single readings can be large or run the other way; also: potency is read from the fitted curve at half-maximal effect; the source files actives as falling curves though it sought activators and does not explain the sign; nearly all actives have a fitted effect of over 65% in size; many hits overshoot -100%
Target sequence (P80244 whole entry, looked up): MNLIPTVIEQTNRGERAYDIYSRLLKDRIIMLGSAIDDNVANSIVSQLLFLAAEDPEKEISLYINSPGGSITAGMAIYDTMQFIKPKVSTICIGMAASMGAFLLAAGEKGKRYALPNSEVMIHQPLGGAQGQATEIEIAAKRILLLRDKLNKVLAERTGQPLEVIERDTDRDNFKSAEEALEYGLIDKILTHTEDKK
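ClpP 10 microg/mL final, pH 8 Tris/KCl buffer with BSA, glycerol, Tween-20; compound pinned in; FRET-FV substrate; RT 20 min; Ex320/Em430; ΔFRET vs ADEP 5.8 microM, DMSO, no enzyme.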
gsp antagonist: antagonists of gsp mutant (McCune-Albright syndrome) | gsp-mutant cells, cAMP HTRF, 30 min; control for the full effect not named in the record | Potency, µM (doses to about 76.9 µM), for the others: at the highest dose activity change, negative = inhibition, hits mostly inhibitors | 340,000 tested, 0.4% active | AID 624288; active = falling curve of any shape with a large fitted effect; inconclusive = falling curve, mostly with a smaller effect; inactive = flat or rising curve; cell line not stated here;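 also: intracellular cAMP measured with PDE inhibitor Ro 20-1724 present during compound exposure; potency is read from the fitted curve at half-maximal effect; % is scaled to controls: 0 for no effect and ±100 for the full control effect; nearly all actives have a fitted effect of over 65% in size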
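Measurement of cellular cAMP by homogeneous time-resolved fluorescence following a 30 min compound exposure at 37C. The PDE inhibitor […] was present throughout; the assay buffer was DPBS with 0.05% BSA and 0.005% Tween 20.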
Sfp inh: inhibitors of Bacillus subtilis Sfp phosphopantetheinyl transferase | AID 1490 | Potency, µM, without a hit: max response, negative = inhibition, usual class: inhibitors | Q9F4F7 | Biochemical Sfp PPTase activity, qHTS | 310,000 tested, 3.5% active; active = well fitted inhibition curve with a large enough effect; inconclusive = small, poorly fitted or top-dose-only effect, or another doubt; inactive = no such curve, though single readings can be large or run the other way;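 also: the enzyme is Sfp with the accession as filed and its product quenches rhodamine fluorescence; potency is read from the fitted curve at half-maximal effect; 0% = enzyme reaction without inhibitor and -100% = no enzyme wells; top concentration of the series not given in the record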
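Sfp 15 nM + cpd, 15 min RT; start w/ rhodamine-CoA 5 uM, BHQ-2-YbbR 12.5 uM (final); 50 mM Hepes pH 7.6, 10 mM MgCl2, 0.01% NP-40, 0.01% BSA; read 525/598 nm at 0 and 30 min.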
CtBP-E1A blk: inhibitors of CtBP/E1A interaction; AlphaScreen GST-E1A/His-CtBP binding, 1536-well; active compounds read low; control for the full effect not named in the record; activity change, % (concentration not given with the values); 340,000 tested, 0.49% active; AID 651724; in the data active means activity change below about -65%; inconclusive means about -30% to -65%; inactive means above about -30%; also: % is scaled to controls: 0 for no effect and ±100 for the full control effect
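AlphaScreen with 125 nM GST-E1A and 125 nM His-CtBP (5X stocks) in Tris pH 8.0, 300 mM NaCl, BSA, Tween 20, TCEP. Compounds preincubated 2 h at 37 deg C, then glutathione donor/nickel acceptor beads added for 1 h at 37 deg C in dark.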
TRPV1 PAM: enhances activation of the human vanilloid receptor TRPV1. potentiation, % at 8.33 µM. 320,000 tested, 0.02% active. TRPV1-expressing cells, Fluo-8 calcium influx, capsaicin EC20 potentiation; host cell line not named in the record; control for the full effect not named in the record; active means potentiation above 80%; inconclusive means 30% to 80%; inactive means below 30%; also: 0% is about no effect
Target sequence (Q8NER1 whole entry, looked up): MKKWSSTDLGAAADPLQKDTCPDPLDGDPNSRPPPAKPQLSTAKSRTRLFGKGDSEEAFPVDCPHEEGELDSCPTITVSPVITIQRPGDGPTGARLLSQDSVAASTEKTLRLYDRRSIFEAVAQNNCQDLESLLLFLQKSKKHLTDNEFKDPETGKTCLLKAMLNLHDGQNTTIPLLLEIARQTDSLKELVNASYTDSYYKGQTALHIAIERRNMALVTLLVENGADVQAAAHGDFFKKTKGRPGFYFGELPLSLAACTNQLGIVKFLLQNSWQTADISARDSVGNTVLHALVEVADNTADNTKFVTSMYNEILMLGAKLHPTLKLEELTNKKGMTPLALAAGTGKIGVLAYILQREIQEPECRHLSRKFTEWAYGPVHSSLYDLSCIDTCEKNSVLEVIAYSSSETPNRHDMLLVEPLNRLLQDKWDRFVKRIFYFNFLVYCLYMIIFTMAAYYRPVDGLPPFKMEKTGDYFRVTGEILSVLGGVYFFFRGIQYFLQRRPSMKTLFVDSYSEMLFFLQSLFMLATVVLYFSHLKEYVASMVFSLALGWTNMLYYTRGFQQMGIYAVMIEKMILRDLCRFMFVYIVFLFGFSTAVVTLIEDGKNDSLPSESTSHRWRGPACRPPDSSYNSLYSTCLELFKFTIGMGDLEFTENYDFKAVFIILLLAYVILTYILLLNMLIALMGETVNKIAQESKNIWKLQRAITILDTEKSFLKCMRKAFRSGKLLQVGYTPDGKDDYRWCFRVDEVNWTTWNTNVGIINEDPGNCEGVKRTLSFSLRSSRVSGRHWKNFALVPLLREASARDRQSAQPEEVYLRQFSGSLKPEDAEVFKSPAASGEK
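Cells expressing TRPV1 were dye-loaded with Fluo-8 and read kinetically: 10 s baseline, 3 min after compound (agonist portion), then 2 min after EC20 capsaicin (allosteric enhancer portion). Calcium-bound dye fluorescence at 480/520 nm.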
gsp agonist: gsp mutant agonism | gsp mutant cells, cAMP HTRF, 30 min; control for the full effect not named in the record | Potency, µM (top dose mostly 76.9 µM), inactives show top-dose activation (cAMP increase), actives largely listed as activators | 340,000 tested, 0.13% active; active = well fitted activation curve with a large enough effect; inconclusive = small, poorly fitted or top-dose-only effect, or another doubt; inactive = no such curve, though single readings can be large or run the other way; cell line not stated here;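 also: phosphodiesterase inhibitor Ro 20-1724 added with compounds to block cAMP breakdown; potency is read from the fitted curve at half-maximal effect; nearly all actives have a fitted effect of over 60% in size; about a fifth of the inactives were tested at one dose only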
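Cells stably selected in G418 were plated at 2000/well, grown 16-24 hr, then given compounds in DMSO with the PDE inhibitor […] (300 uM solution added) for 30 min at 37C; cAMP was read by HTRF.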
* marks the source's active call; other numbers are inactive results; ? = inconclusive; nt = no result given; & = joins results of further samples; [ ] = dose if it differs, or a comment.

SMILES | Menin MLL FP FL | ClpP mod | gsp antagonist | Sfp inh | CtBP-E1A blk | TRPV1 PAM | gsp agonist
CCOC1CCCC(n2cnc3c(=S)nc[nH]c32)O1 (configuration not stated) | nt | nt | -2% | nt | -1 | nt | -17%
Cc1ccc(C(C(=O)NC2CCCC2)N(Cc2cccs2)C(=O)c2csnn2)o1 (configuration not stated) | nt | 0.3% | -3% | nt | -1 | nt | ?
O=C(NCCCn1ccnc1)c1ccccc1Cl | 3.0 | 1.6% | -7% | 20% | 0 | -9 | 12%[15.4 µM]
COC(=O)C1=C(C)N(C2CCCCC2)C(=O)/C1=C\c1cccs1 | -2.1 | nt | -7% | 12% | -18 | -4 | -14%
N#Cc1ccc(NC(=O)COC(=O)CCNS(=O)(=O)c2ccccc2)cc1 | 4.1 | 1.7% | -2% | 4% | 4 | -27 | 3%
Cc1cc(C)c(NC(=O)COC(=O)C2CCC(=O)N2)c(C)c1 (configuration not stated) | 1.6 | nt | nt | 21% | 3 | 10 | -11%[15.4 µM]
CC(C)C[C@H](NC(=O)c1nc[nH]c1C(=O)N[C@@H](CCCCNC(=O)OC(C)(C)C)C(=O)OC(C)(C)C)C(=O)OC(C)(C)C | -2.0 | 1.1% | 4% | 17% | -20 | ? | 19%
CC(C)C(=O)N=C1SC2CS(=O)(=O)CC2N1Cc1ccccc1 (configuration not stated) | 6.7 | nt | 9% | 12% | -2 | -2 | -2%[15.4 µM]
C/C(CC(=O)Nc1ccc(OCc2ccccc2)cc1)=N\NC(=O)C(=O)Nc1ccccc1C | -0.7 | -0.9% | -5% | -10% | 3 | nt | 21%
O=C(NCCN1CCOCC1)c1ccc(Cl)c(S(=O)(=O)N2CCCC2)c1 | -5.7 | -1.5% | 1% | 17% | -1 | 7 | ?
COc1ccc(-n2nc(C(=O)NCC3CCCO3)c3ccccc3c2=O)cc1 (configuration not stated) | 1.6 | -1.9% | -15% | 16% | 3 | -13 | ?
CC(=O)c1ccc(NC(=O)C(C)N(C)CC(=O)Nc2ccccc2Cl)cc1 (configuration not stated) | 0.7 | -0.2% | -7% | 11% | -1 | -20 | ?
COc1ccccc1/C=C/C=N/NC(=O)c1cnccn1 | -1.6 | nt | nt | -7% | -8 | 1 | 13%[15.4 µM]
CCOc1ccc(CO[C@@H]2O[C@H](CO)[C@@H](O)[C@H](O)[C@H]2NC(C)=O)cc1OC | -6.6 | -0.3% | 15% | -7% | 4 | -17 | 16%[15.4 µM]
CCc1ccc(Nc2nnc(SCn3nnc4ccccc4c3=O)s2)cc1 | -3.2 | -0.1% | -12% | -10% | -5 | 9 | -13%
Cc1cnc(C(=O)Nc2nnc(C(C)C)s2)cn1 | 0.3 | 3.1% | 1% | ? | ? | 3 | 0%
O=C(CN1CCCCC1)N=Nc1c(O)[nH]c2ccccc12 | 2.2 | -0.6% | -7% | -22% | nt | 1 | -15%
C#CCOCCOCCOCCNc1nc(N2CCN(C(=O)[C@H](CCCCN)n3cc([C@@H](N)CO)nn3)CC2)nc(N2CCN(C(=O)[C@H](CCCCN)n3cc([C@@H](N)CC(C)C)nn3)CC2)n1 | nt | -3.7% | 9% | nt | ? | nt | -8%
Cc1cccc(-n2ncc3c(NC4CCCCC4)ncnc32)c1 | 7.2 | ? | -20% | 5% | -2 | 0 | -10%
Cc1ccc(N(CC(=O)NCc2ccc3c(c2)OCO3)C(=O)c2csnn2)cc1 | 1.2 | nt | 1% | 19% | -20 | 7 | 17%
CCC(CC)C(=O)NCc1ccccc1OC | 2.2 | -0.8% | 10% | 17% | 12 | 8 | -5%
CC(O)c1cccc(NC(=O)Cc2cccc3ccccc23)c1 (configuration not stated) | -2.7 | nt | nt | 8% | nt | -15 | nt
CC(SC(C)C(=O)NN=Cc1cccc(Cl)c1)C(=O)NN=Cc1cccc(Cl)c1 (configuration not stated) | nt | nt | 5% | nt | 6 | nt | 4%
Brc1ccc2c(c1)CNc1c(ncnc1N1CCOCC1)O2 | 0.7 | -0.6% | ? | 11% | -2 | -5 | 7%
O=Cc1ccc2noc(-c3ccc(F)cc3)c2c1 | ? | -7.0% | 21% | -6% | 0 | -4 | 18%
COc1cc(Cl)c(C)cc1NC(=O)c1ccccc1NC(=O)CN1CCN(C(C)=O)CC1 | nt | -1.2% | nt | nt | -1 | nt | -37%[inhibitor]
Cc1cc2oc(C(=O)Nc3ccc(S(=O)(=O)Nc4ncccn4)cc3)c(C)c2cc1Cl | nt | ? | -12% | 14% | -5 | -22 | 1%[15.4 µM]
CCOC(=O)Nc1ccc(S(=O)(=O)N2CCC(C)CC2)cc1 | 3.4 | nt | 18% | 21% | 5 | -42 | -24%[15.4 µM]
CSc1ccc(-c2nc(CSCC(=O)N3CCOCC3)c(C)o2)cc1 | 0.3 | ? | ? | -2% | -1 | -13 | 13%
CSc1nc(N)nc2c1ncn2C1OC(CO)C(O)C1O (configuration not stated) | nt | nt | 6% | nt | 3 | nt | 7%
CC(=O)c1ccc(NC(=O)CN2C(=O)NC3(CCCc4ccccc43)C2=O)cc1 (configuration not stated) | nt | -0.1% | 8% | nt | -7 | nt | -10%
CCSc1nc(-c2ccc(OC)cc2)n(-c2nc3ccccc3s2)n1 | 0.0 | 28µM* | -6% | ? | 27 | 1 | -18%
O=C(NCCc1ccc(Cl)cc1)c1ccc2c(c1)OCCO2 | 0.3 | -1.3% | 5% | 2% | nt | -4 | 4%
COc1ccc(CN(C)C[C@@H]2OCCCC[C@@H](C)Oc3ccc(N(C)C)cc3C(=O)N([C@H](C)CO)C[C@@H]2C)cc1 | nt | 1.8% | nt | nt | 4 | nt | -47%[inhibitor]
COc1ccc(OC)c(S(=O)(=O)NCCC2=CCCCC2)c1 | 2.7 | -1.7% | -3% | -18% | 1 | -15 | -18%
Cc1ccc(N=Cc2ccccc2O)cc1Cl | nt | -22% | -2% | nt | 10 | nt | 18%[15.4 µM]

2 entries from above, as tab-separated lines:
SMILES	Menin MLL FP FL	ClpP mod	gsp antagonist	Sfp inh	CtBP-E1A blk	TRPV1 PAM	gsp agonist
Cc1cc2oc(C(=O)Nc3ccc(S(=O)(=O)Nc4ncccn4)cc3)c(C)c2cc1Cl	nt	?	-12%	14%	-5	-22	1%[15.4 µM]
CCOC(=O)Nc1ccc(S(=O)(=O)N2CCC(C)CC2)cc1	3.4	nt	18%	21%	5	-42	-24%[15.4 µM]

(list continues)
SMILES | Menin MLL FP FL | ClpP mod | gsp antagonist | Sfp inh | CtBP-E1A blk | TRPV1 PAM | gsp agonist
Cc1cccc(/C(N)=N/OC(=O)c2ccccc2Cl)c1 | 5.5 | nt | 4% | -8% | 32 | -1 | -10%
O=C1C2CCCCC2C(=O)N1c1ccc(NC2CCN(Cc3ccccc3)CC2)c([N+](=O)[O-])c1 (configuration not stated) | -2.2 | 0.0% | -6% | -9% | nt | 8 | -27%
COC(=O)c1ccc(C2Nc3ccccc3NC3=C2C(=O)CC(C)(C)C3)cc1 (configuration not stated) | 2.9 | 0.7% | -2% | 6% | nt | 1 | 9%
Cc1ccc(NC(=S)N(CCCN(C)C)Cc2cc3cc4c(cc3[nH]c2=O)OCO4)c(C)c1 | -5.4 | -0.3% | 8% | 11% | -2 | 12 | 11%[15.4 µM]
COc1ccc(CC(=O)Nc2cc(Cl)ccc2N2CCCC2)cc1 | -3.1 | nt | -2% | 9% | -15 | 0 | 7%[15.4 µM]
O=C(CN1C(=O)c2cccnc2Oc2ccc(Cl)cc21)NCCc1ccccc1 | nt | -1.1%&-0.1% | -7% | 2% | nt | -9 | -30%[inhibitor]
Cc1cc(C(=O)COC(=O)c2cc(Cl)ccc2N)c(C)n1Cc1ccco1 | 10 | -1.2% | -1% | -18% | -16 | -7 | -1%[15.4 µM]
COc1ccc(-c2nnn3c2nc(NCc2ccccc2)c2ccccc23)cc1 | -0.5 | -5.6%&-0.4% | 25% | 7% | 4 | -3 | -28%
Cc1cc(Nc2ccc(F)cc2F)n2nc(C)nc2n1 | -0.8 | 0.4% | -1% | 5% | 4 | -8 | -15%
CC(=O)Nc1ccc(NC(=O)C(C)OC(=O)c2cc(S(=O)(=O)N3CCOCC3)ccc2Cl)cc1 (configuration not stated) | nt | 0.6% | -2% | nt | 6 | -12 | -45%[inhibitor]
Cc1ccc(-c2cc(C(=O)N3CCN(c4ccc(F)cc4)CC3)c3ccccc3n2)o1 | -0.4 | ? | ? | 25µM* | -23 | -25 | 19%
COc1ccccc1CNC(=O)C1CCCN(S(=O)(=O)c2ccc3c(c2)C(C)(C)C(=O)N3C)C1 (configuration not stated) | -3.7 | 1.0% | -7% | 17% | 3 | 12 | ?
COc1ccc(C(=O)N2CCCC(C(=O)c3ccccc3OC)C2)cc1OC (configuration not stated) | nt | -1.7% | 11% | -2% | 4 | -3 | 5%
CC(C)C(NC(=O)c1ccccc1)C(=O)NC1CCCc2ccccc21 (configuration not stated) | nt | -1.4% | 9% | nt | 2 | -37 | -4%
COc1ccc(C(=O)N2CCOC2CNC(=O)C(=O)NCc2ccccc2Cl)cc1 (configuration not stated) | -4.2 | -2.7% | 2% | 10% | 4 | 2 | -27%
Cc1ccc(-n2c(Cc3ccccc3)n[nH]c2=S)c(C)c1 | 1.5 | nt | -44% | 2% | -21 | 2 | 4%[15.4 µM]
Cc1nc(-c2ccccc2)sc1C(=O)CSc1ccc(Cl)cc1 | -0.4 | -23% | 2% | -23% | 65 | 21 | 6%
CN(Cc1c(C(=O)N/N=C/c2c(F)cccc2Cl)nnn1-c1nonc1N)C1CCCCC1 | nt | -1.8% | nt | nt | -7 | nt | -12%
C[C@H]1CN(CCc2ccccc2)C(=O)[C@@H]1CC(=O)Nc1ccc(Br)cc1 | nt | -0.2% | nt | nt | 1 | nt | -39%
CC(=O)Nc1ccccc1OC(C)C(=O)N1CCC(C)CC1 (configuration not stated) | 0.3 | nt | 6% | -6% | 7 | 28 | -10%
C[C@@]12C(=O)N(c3cccc(Cl)c3)C(=O)N1[C@@H]1c3ccccc3OC[C@@H]1[C@H]2c1ccccc1 | nt | -1.2% | -1% | nt | 0 | nt | -15%
O=C(Nc1ncc(C(F)(F)F)cc1Cl)c1ccc(S(=O)(=O)N2CCOCC2)cc1 | -1.9 | nt | 17% | 4% | 10 | -9 | ?
